BJeLR lethal: BJeLR cell viability loss | inhibition, % (concentration not given with the values) | hit rate 0.17% among 300,000 | BJeLR (HRASV12) viability, CellTiter-Glo ATP luminescence, 48 h; reference of the scale not given here;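 active means replicate mean above 50%; inconclusive means above 50% but judged a plate artefact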;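 further: 50 nL library stock added to about 25 µL; numbers are from one replicate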
Mtb hypoxia rep: reduces hypoxia-regulated biosensor signal in M. tuberculosis; M. tuberculosis hypoxia-regulated fluorescent reporter, fluorescence; fluorescence inhibition, % (no concentration beside the values); hit rate 0.1% among 300,000;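 active means 35 to 45% if threefold the growth effect, above 45% if 1.5-fold the growth effect; inactive means the rest, general growth blockers included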;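 further: wells of about 50 µL received 100 nL stock; 0% = vehicle wells and 100% = reference inhibitor wells; whole bacteria with a GFP reporter of the hypoxia response; strong numbers were not always called active; many hits fall short of the cut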
PrP 5UTR inh: inhibition of PrP 5' UTR reporter expression; cell-based PrP 5' UTR mRNA reporter, plate reader; inhibition, % (concentration not given with the values); hit rate 0.35% among 340,000; AID 488862;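 active means every replicate at 50% or more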;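 further: 0 = median of the neutral control wells; tested in H4 reporter cells; numbers are from one replicate; inactives centre near -14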
Autofluor counter: compound fluorescence in toxin protease inhibitor counterscreen; compound autofluorescence counterscreen, microsphere flow cytometry; active compounds read high; fluorescence intensity (no concentration beside the values); hit rate 3.1% among 360,000; AID 624483;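 active means at least 3 SD above the mean of all compounds, about 16000 in these data; inconclusive means too few beads counted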;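 further: 100 nL of 1 mM stock went into each well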
RN4220 kill: S. aureus RN4220 growth inhibition | OD600, 16 h | inhibition, % (test concentration not listed) | hit rate 0.33% among 330,000 | AID 1259311;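 active means z-score of -3 or lower and OD600 up to 0.18 on both plates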;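 further: plate controls were untreated cells for no effect and reference antibiotic for full effect; stock transfer was 100 nL into about 80 µL; one replicate is shown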
Sa ugtP lethal: kills S. aureus RN4220 lacking UgtP. S. aureus RN4220 ugtP deletion, OD600 growth, 16 h; some inactives read as strong as hits. growth inhibition, % (concentration not given with the values). hit rate 0.54% among 330,000;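 active means z-score under -3 and OD600 up to 0.15 on both plates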;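 further: plate controls were untreated wells for no effect and antibiotic for full effect; wells of about 80 µL received 100 nL stock; the first replicate is given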
Mtb hypoxia rep growth: second read-out of Mtb hypoxia rep, no call of its own (marks repeat the call); growth inhibition, %; measured here: M. tuberculosis growth (absorbance);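 0% = vehicle and 100% = reference antibiotic; read after six days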
Starred values were filed as active, the others as inactive; ? = inconclusive; / = no result given.

SMILES	BJeLR lethal	Mtb hypoxia rep	Mtb hypoxia rep growth	PrP 5UTR inh	Autofluor counter	RN4220 kill	Sa ugtP lethal
Cc1cc(N2CCN(C(=O)c3ccco3)CC2)c2ccccc2n1	-3.5	-4.0	-1.7	-13.9	3188	1.2	6.8
Cc1ccccc1C(=O)N1CCc2c([nH]c3ccccc23)C1C(F)(F)F (stereo not given)	1.6	18.2	5.5	-24.7	4543	1.9	61.1
O=S(=O)(NC1CC1)c1ccc(S(=O)(=O)N2CCCC3(CCCCC3)C2)cc1	-5.5	15.5	8.8	-16.9	10650	9.4	-6.9
Cc1cc(C)nc(SCc2ccc(C(=O)NN=C3CCCC3)cc2)n1	14.0	8.6	-6.4	-10.3	4217	6.2	-0.2
CS(=O)(=O)N(CC(=O)NCc1ccc2c(c1)OCO2)C1CCCCC1	0.9	12.1	-5.4	-56.7	4585	0.1	9.1
O=C(Nc1ccc(Br)cc1)C1CCN(C(=O)c2ccc(F)cc2)CC1	-15.2	8.2	10.6	-3.9	2076	4.0	-0.2
COCCn1c(-c2ccc(-c3ccccc3Cl)o2)nc2c1c(=O)[nH]c(=O)n2CC(C)C	-5.7	15.6	10.6	-6.5	3774	5.8	-3.4
CC(C)[C@@H](NC(=O)C1CCC(CNC(=O)[C@H](Cc2ccccc2)NC(=O)OC(C)(C)C)CC1)C(=O)O (stereo not given in full)	3.0	-1.1	-5.4	-11.8	3160	2.6	4.4
COc1ccc(C2=C(Nc3ccc(F)cc3)c3ccccc3C2=O)cc1	2.6	/	/	-10.7	2377	7.8	-2.7
CC(C)(C)n1cnnc1Sc1ncccc1[N+](=O)[O-]	-10.3	4.7	4.0	-30.3	4084	4.9	6.0
COc1ccc2c(c1)[nH]c1c(=O)n(CCN(C)C)cnc12	-1.4	6.3	6.8	-19.4	3136	6.4	8.0
COc1cc(/C=N/NC(=O)CCc2n[nH]c(=O)[nH]c2=O)ccc1O	9.1	/	/	-41.4	10049	/	/
CC(=O)Nc1ccc(OCC(=O)N2CCc3ccccc3C2)cc1	-6.5	-3.7	6.6	-4.7	3755	-0.8	3.0
CCc1ccc(C2NC(=S)NC3=C2C(=O)CC(C)(C)C3)cc1 (stereo not given)	-12.2	10.8	-3.7	-34.7	2343	3.3	6.4
CCCCC(=O)Nc1ccc2oc(-c3ccncc3)nc2c1	1.8	9.7	3.2	-14.4	6848	5.3	14.8
CC(C)c1ccc(NC(=O)C(c2ccccc2)N(C)C(=O)CCc2c[nH]c3ccccc23)cc1 (stereo not given)	3.7	/	/	-34.7	2965	/	/
O=C1Cc2ccccc2C(c2ccc(Br)cc2)N1 (stereo not given)	-14.7	7.6	0.0	-35.9	7939	9.7	7.7
O=C(CNC(=O)OCc1ccccc1)Nc1ccc(Br)cc1C(=O)c1ccccc1	8.5	/	/	8.1	4735	1.1	-4.3
COc1cccc(CN(C)C(=O)c2cc(S(=O)(=O)NCc3ccccc3)ccc2C)c1OC	-7.0	-6.6	3.4	-17.8	5734	3.3	0.6
CCC(=O)Nc1ccc2c(c1)N(C(C)=O)c1ccccc1CC2	-1.7	4.1	-5.8	-5.8	3702	-2.3	6.4
Cn1ncc2c(NCc3ccccc3)ncnc21	-5.8	4.0	15.9	-36.1	9098	3.7	1.7
CC(C)CCNC(=O)C(=O)Nc1cc2c3c(c1)CC(=O)N3CCC2	-2.2	0.2	0.6	-31.8	4909	1.2	-0.2
Cc1cc(C)c(S(=O)(=O)N2CCCc3ccccc32)c(C)c1	-0.5	15.3	1.0	-22.2	3937	2.0	8.8
Cc1cc(C(=O)NCC(=O)O)c(C)o1	-0.6	15.3	8.8	-17.9	9232	1.4	4.1
Nn1cc(-c2ccccc2)nc1SCC(=O)Nc1ccc2c(c1)OCO2	1.2	19.2	1.1	-21.6	2148	7.2	-4.3
Other compounds:
SMILES	BJeLR lethal	Mtb hypoxia rep	Mtb hypoxia rep growth	PrP 5UTR inh	Autofluor counter	RN4220 kill	Sa ugtP lethal
COCCn1nnnc1C(CC(C)C)N1CCN(c2cccc(OC)c2)CC1 (stereo not given)	4.6	/	/	3.3	2157	-0.1	7.1
O=C(Nc1ncc2c(n1)-c1ccccc1CC2)c1ccc(Cl)cc1	-1.0	15.9	14.6	-12.6	22185*	12.1	-1.2
O=C(/C=C/c1ccccc1Cl)Nn1cnc2ccccc2c1=O	-4.6	0.2	-4.2	-17.8	2066	4.9	4.8
O=C(CC(Nc1cccc(Cl)c1Cl)C(=O)O)c1ccccc1 (stereo not given)	1.4	-1.1	6.4	-26.6	4348	18.4	3.2
C/C(=C/c1ccccc1)C(=O)N1CCC(C)CC1	6.1	/	/	4.0	3807	-2.2	-1.6
CC1CCC2(CC1)NC(=O)N(CC(=O)N1CCc3ccccc3C1)C2=O (stereo not given)	1.2	13.5	6.2	-43.3	4124	9.6	1.7
Cn1c(CNC(=O)CCNC(=O)c2cccc(Br)c2)cc(=O)n(C)c1=O	9.1	-4.8	-2.2	6.7	4843	-0.2	1.9
Cc1ccccc1CNC(=O)C1CCC(=O)N(Cc2cccc(F)c2)C1 (stereo not given)	-2.7	8.9	-4.6	8.7	4217	5.9	13.5
C=CCn1c(SCC(=O)c2cc(C)n(CCOC)c2C)nc2sc(C)c(C)c2c1=O	0.1	2.7	6.1	-15.9	2886	-11.9	-2.4
CCc1nnc(NC(=O)CSc2nnc(CNc3ccc(OC)cc3)n2CC)s1	-5.6	13.5	1.8	15.2	2074	5.0	5.3
CC(C(=O)N1CCN(c2ccc([N+](=O)[O-])cc2)CC1)N1C(=O)C2CC=CCC2C1=O (stereo not given)	5.1	3.8	10.7	-26.0	4540	1.4	5.1
CCOC(=O)C1C(=O)NC(N2CCN(Cc3ccccc3)CC2)=NC1c1ccccc1 (stereo not given)	-0.3	2.1	-1.7	-29.4	11601	-1.0	5.8
O=C(Nc1ccccc1-c1ccccc1)c1ccc(NC(=O)c2ccco2)cc1	-4.8	16.8	8.9	-8.9	2662	1.3	0.6
CCOc1ccccc1-n1c(=S)sc2c(=O)n(-c3ccc(C)cc3)c(=S)[nH]c21	-4.1	-1.3	1.5	-11.0	3398	-1.0	0.4
O=[N+]([O-])c1cnccc1Nc1ccc(F)cc1	0.9	/	/	10.4	4503	0.1	-5.8
Cc1ccc(NC(=O)Cn2nc(C)c([N+](=O)[O-])c2C)cc1Cl	-16.3	-3.0	9.0	-33.0	4231	-0.8	2.5
CCOc1ccccc1/C=C/c1onc(C)c1S(=O)(=O)N1CCC(C(=O)N(CC)CC)CC1	3.3	1.0	0.1	-2.7	5982	-2.4	1.1
CCOc1ccc(OCCC(=O)OCC(=O)Nc2ccc3c(c2)OCO3)cc1	0.6	7.9	-3.4	-29.8	?	2.6	5.5
Cc1ccc([N+](=O)[O-])cc1N(CC(=O)N1CCCCC1)S(C)(=O)=O	/	8.5	2.0	-13.6	4520	2.6	8.3
CC(=O)Nc1ccc(C(=O)Nc2ccc(S(=O)(=O)N3CCCC3)cc2)cc1	-3.1	4.0	1.9	-18.8	2556	-13.8	-4.4
Cc1ccc(NC(=O)Nc2nc3ccccc3s2)cc1NC(=O)Nc1nc2ccccc2s1	-10.4	6.9	-1.8	-28.9	3215	13.1	41.6
COc1ccc(CC(NC(=O)c2ccccc2)C(=O)NCC(=O)O)cc1 (stereo not given)	-1.2	-0.2	-1.8	-7.4	6469	24.6	17.1
O=c1cc(-c2ccc(Cl)cc2)oc(=O)[nH]1	3.5	9.0	1.6	-18.4	4915	5.0	-0.9
CC(C)CCN1CCN(Cc2ccc(N3CCNC3=O)cc2)CC1CCO (stereo not given)	14.1	3.8	-5.5	-12.0	4548	0.8	-1.8
C=CCn1cc(C=NN2C(=O)C3C4C=CC(C4)C3C2=O)c2ccccc21 (stereo not given)	/	-3.2	-4.7	/	/	0.8	3.3

Record cards, from the list above. Values in the order: BJeLR lethal	Mtb hypoxia rep	Mtb hypoxia rep growth	PrP 5UTR inh	Autofluor counter	RN4220 kill	Sa ugtP lethal
Results for `O=C(Nc1ccccc1-c1ccccc1)c1ccc(NC(=O)c2ccco2)cc1` → -4.8	16.8	8.9	-8.9	2662	1.3	0.6
Results for `O=C(/C=C/c1ccccc1Cl)Nn1cnc2ccccc2c1=O` → -4.6	0.2	-4.2	-17.8	2066	4.9	4.8
Results for `O=[N+]([O-])c1cnccc1Nc1ccc(F)cc1` → 0.9	/	/	10.4	4503	0.1	-5.8
Results for `Cn1c(CNC(=O)CCNC(=O)c2cccc(Br)c2)cc(=O)n(C)c1=O` → 9.1	-4.8	-2.2	6.7	4843	-0.2	1.9
Results for `C/C(=C/c1ccccc1)C(=O)N1CCC(C)CC1` → 6.1	/	/	4.0	3807	-2.2	-1.6

(continued)
SMILES	BJeLR lethal	Mtb hypoxia rep	Mtb hypoxia rep growth	PrP 5UTR inh	Autofluor counter	RN4220 kill	Sa ugtP lethal
O=C(CCc1ccccc1)Nc1ccc(N2CCOCC2)cc1	0.1	2.7	8.6	-25.0	8214	-0.1	2.8
Cc1ccccc1NC(=O)c1ccno1	-0.3	-10.3	8.1	-13.3	6000	-2.5	-2.9
O=c1c2ccccc2n(Cc2ccc(F)cc2)c(=O)n1C1CCCC1	-1.8	/	/	-13.3	2456	-6.1	13.9
Cc1cc(O)c(-c2n[nH]c3c2C(c2cccc(O)c2)N(Cc2cccnc2)C3=O)cc1Cl (stereo not given)	-1.5	2.9	-11.6	-10.0	?	-2.5	26.4
CC(C)N(CCNC(=O)c1ccc(NC2=NC3CS(=O)(=O)CC3S2)cc1)Cc1ccco1 (stereo not given)	3.0	5.2	3.8	-18.1	5707	-11.3	-4.0
CCOc1ccc(Nc2ncnc3c2nnn3Cc2ccccc2)cc1	9.8	7.2	13.9	2.6	4027	-1.2	-5.8
CSCCC(NC(=O)COc1ccccc1)C(=O)NCCOc1ccccc1 (stereo not given)	/	4.3	4.4	-28.3	8514	-0.2	6.5
Cc1ccc(NC(=O)N2CCCCC2)cc1[N+](=O)[O-]	-13.0	/	/	-37.2	2983	-1.4	0.0
COC(=O)c1ccccc1-c1ccc(C(c2c(C)[nH][nH]c2=O)c2c(C)[nH][nH]c2=O)o1	3.3	9.8	-1.1	-24.2	2716	3.3	1.2
OCCN=C1CCCc2c1[nH]c1ccc(Cl)cc21	-2.4	-3.7	-6.4	-4.3	3805	-5.9	-11.7
CNc1nc(N/N=C/c2cc3c(cc2[N+](=O)[O-])OCO3)nc(Nc2ccccc2)n1	0.1	/	/	0.6	4512	/	/
COc1ccc(-c2oc3ccccc3c2C(=O)OCc2ccccc2OC)cc1	-9.4	/	/	-2.6	3962	/	/
CCOc1ccc(NC(=O)Cn2nc(C(N)=O)c3ccccc3c2=O)cc1S(=O)(=O)N1CCCC1	/	-5.8	5.3	-4.2	5879	0.9	-1.8
CCn1c(SCC(=O)OCC(=O)N2c3ccccc3NC(=O)C2(C)C)nnc1-c1ccco1	-1.9	5.3	8.2	-2.8	3809	-0.2	-7.4
COc1ccc(NC(=O)Nc2ccc3c(c2)CCC3)c(OC)c1	-7.4	-3.7	11.6	-1.6	4450	-2.2	-8.7
CN(c1ccccc1)S(=O)(=O)c1ccc(NC(=O)c2ccc(F)cc2)cc1	-5.4	6.5	1.6	-30.1	5243	2.1	-9.9
CCOC1OC(C(=O)N2CCOCC2)=CC(c2ccc3c(c2)OCO3)C1CCCO (stereo not given)	/	7.9	11.4	/	/	4.1	2.3
COc1cc(-c2nnc(NC(=O)c3ccc(S(=O)(=O)N4CCOCC4)cc3)o2)cc(OC)c1OC	1.7	0.9	-0.1	/	/	5.8	7.3
Clc1cccc(Cl)c1Cl	/	5.4	-1.8	-13.1	4628	5.0	7.5
COC(=O)C(C)n1cnc2c(nnn2-c2ccccc2)c1=O (stereo not given)	18.4	-2.5	-10.3	-12.0	5210	3.4	-2.6
CCSc1ccc2c(c1)N(CCCN1CCN(C)CC1)c1ccccc1S2	/	16.7	18.3	-14.9	6579	-7.2	29.0
CCCCCCCCSc1nnc2[nH]c(=O)cc(N)n12	-2.6	-3.8	6.4	-9.3	?	6.6	16.1
CCN1CCN(S(=O)(=O)c2ccc(Cl)c(C(=O)N(C)Cc3ccc(F)cc3)c2)CC1	-9.0	4.5	1.0	-27.7	6223	2.4	7.8
Cc1noc(C)c1CSCC(=O)N(C)CC(=O)Nc1ccc(Cl)cc1	5.7	1.0	-1.0	-17.3	6200	4.4	1.4
CCc1ccc(NC(=O)CSc2ccccn2)cc1	5.4	-0.2	1.1	-71.5	3305	4.5	17.8

High-throughput results deposited in PubChem by several laboratories.

The order is random, and some 4% of all compounds hit somewhere here.
